# Screening results as filed in PubChem.
# Anthrax LT inh: blocks cellular internalization of anthrax lethal toxin; Cells, anthrax lethal toxin internalization, FRET ratio (460/530); Potency, µM (titrated, usually from 40 µM), for the others: at the highest dose activity change, negative = inhibition, hits mostly inhibitors; 0.67% of 70,000 active; active = well fitted falling ratio curve with the 530 nm signal flat; inconclusive = other ratio curves, or a change in one channel alone; inactive = flat curves in the ratio and both channels; the % refers to the ratio; also: % is scaled to controls: 0 for no effect and ±100 for the full control effect; nearly all actives have a fitted effect of over 50% in size; tested in ME-180 cells; beta-lactamase reporter
# SmPrx2 inh: inhibitors of Schistosoma mansoni peroxiredoxin 2 | AID 448 | 0.07% of 65,000 active | S. mansoni Prx2 activity coupled to TGR/GSH (TGR is thioredoxin glutathione reductase), NADPH fluorescence loss, qHTS; some inactives read as strong as hits | Potency, µM; active means full or partial inhibition curve with a strong effect at the top dose; inconclusive means weaker partial or single-point curve; inactive means no accepted curve; also: series up to 57 µM; many of its hits are not listed in these tables
#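 qHTS, coupled TGR/Prx2 format; 15 min compound preincubation at RT; reaction started with H2O2 (2.5 mM aliquot); kinetic NADPH fluorescence decrease, ex 365/em 450 nm.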
# An asterisk follows results filed as active; ? = inconclusive; . = no result given; & = joins results of further samples; [ ] = dose if it differs, or a comment. Potency is read from the fitted curve at half-maximal effect.
canonical_smiles	Anthrax LT inh	SmPrx2 inh
Cc1ccc(-c2noc(CCC(=O)NCCN3CCN(Cc4ccccc4)CC3)n2)cc1	-16%	>57
O=C(CCCN1CCC(c2ccccc2)C1)c1ccc2c(c1)OCCO2 (stereo not given)	?	>57
Clc1ccc(C(c2ccc(Cl)cc2)C(Cl)Cl)cc1	?	.
CCC(C)NC(=O)c1cc(OC)c(OC)c(OC)c1 (stereo not given)	-2%	>57
Cc1cc(N2CCN(C(=O)c3ccco3)CC2)n2nc(-c3cccc(F)c3)cc2n1	-26%	>57
NCCCCN	-4%	>57
CCOc1ccc(NC(=O)Cn2nnc(C(=O)NCc3ccccc3OC)c2N)cc1	?	>57
O=C(c1ccc(COCC(F)(F)F)o1)N1CCCCCC1	2%	>57
O=C(CSc1nc2ccccc2c(=O)n1-c1ccc(Cl)cc1)c1ccco1	-4%	>57
Cc1ccc2cc3cc(C(=O)N4CCC5(CC4)OCCO5)oc3nc2c1	18%	>57
COc1ccc(C(CNC(=O)c2ccc3c(c2)C(=O)N(CCC(C)C)C3=O)N2CCOCC2)cc1 (stereo not given)	8%	>57
CN1CCC2(CC1)CCN(C(=O)c1cc(C(F)(F)F)cc(C(F)(F)F)c1)CC2	-7%	>57
CC(C)NC(=O)N1CCC2(CC1)CCN(C(=O)c1ccco1)CC2	3%	>57
Cc1cc(=O)c2c(O)c(O)ccc2o1	?	>57
CCC1CCCCN1C(=O)CSc1nnc(-c2ccc(Cl)s2)o1 (stereo not given)	-1%	>57
Cc1cc(C)nc(N2CCC(C(=O)NCCc3ccc(F)cc3)CC2)n1	-6%	>57
CC1CCN(CC(O)COc2ccc(F)cc2)CC1 (stereo not given)	-11%	>57
O=C(NCc1ccccn1)C1CCN(S(=O)(=O)c2ccccc2)CC1	-27%	>57
COc1ccc(CNC(=O)COC(=O)c2c[nH]c(=O)[nH]c2=O)cc1OC	-6%	>57
CCn1cc(C(=O)NCc2ccco2)c(=O)c2cc(S(=O)(=O)N3CCC(C)CC3)ccc21	.	>57
NCCSCCC(=O)O	5%[8 µM]	>57
CSC1=C(C#N)C(c2ccc(Cl)cc2)C2=C(CC(C)(C)CC2=O)N1 (stereo not given)	-1%	.
Cc1cc(C)nc(SCc2nc3ccccc3n2C)n1	-2%	>57
CCCCNc1nc(SC)nc2nc[nH]c12	-1%[8 µM]	>57
CCOC(=O)C(C)(C)Oc1ccc(Cl)cc1	2%	>57

# An excerpt from above in order of number of heavy atoms, low to high:
canonical_smiles	Anthrax LT inh	SmPrx2 inh
CCC1CCCCN1C(=O)CSc1nnc(-c2ccc(Cl)s2)o1 (stereo not given)	-1%	>57
CN1CCC2(CC1)CCN(C(=O)c1cc(C(F)(F)F)cc(C(F)(F)F)c1)CC2	-7%	>57
Cc1ccc(-c2noc(CCC(=O)NCCN3CCN(Cc4ccccc4)CC3)n2)cc1	-16%	>57

# Remaining list, next part:
canonical_smiles	Anthrax LT inh	SmPrx2 inh
Cn1c(=O)cc(-c2ccccc2)c2ccccc21	10%	>57
CC(=O)CCS(=O)(=O)c1ccc(C)c(C)c1	18%	>57
Cc1cc(=O)[nH]c2c1c(C)nn2-c1ccccc1	14%	>57
CCOC(=O)C1=C(N)Oc2cc(C)n(C)c(=O)c2C1c1ccncc1 (stereo not given)	7%	>57
COC(=O)C1CCN(C(=O)c2cc(OC)c(OC)c(OC)c2)CC1	6%	>57
Cc1sc2nc(CN3CCCC3)nc(N3CCN(S(=O)(=O)c4cccs4)CC3)c2c1C	-2%	>57
COc1ccc(C)cc1-n1c(SCC(=O)Nc2cc(C)on2)nc2sc(C)c(C)c2c1=O	13%	>57
COc1cccc(-c2nc(NCCNC(C)=O)c3ccccc3n2)c1	9%	>57
CS(=O)(=O)Nc1cccc(-c2ccc3ncnc(N4CCOCC4)c3c2)c1	?	>57
Nc1nsc2ccccc12	?	>57
COc1ccc(N2CCN(c3oc(COc4ccccc4)nc3C#N)CC2)cc1	?	>57
CN(C(=O)c1cnccn1)c1nnc(-c2cnccn2)s1	-9%	>57
CSc1nc(C)cc(-n2cc(F)c(=O)[nH]c2=O)n1	-10%	>57
CCOC(=O)C1CCN(C(=O)N2CCOCC2)CC1	.	>57
O=C(O)c1cc(N2C(=O)C3C4C=CC(C4)C3C2=O)ccc1NCc1cccnc1 (stereo not given)	-2%	>57
CCn1cc(C(=O)NCc2ccco2)c2cc(OC)c(OC)cc2c1=O	0%	>57
COc1cc(CNc2ncn[nH]2)cc(Br)c1OC	?	>57
N=C(N)CCNC(=O)[C@@H]1CCC(N)=N1	-6%[8 µM]	>57
CCOC(=O)c1[nH]c2cc(OC)c(OC)cc2c1NC(=O)CN1CCN(C)CC1	?	>57
CCCCCCNc1c(C(=O)OCC)c(=O)[nH]c2ccccc12	7%	>57
COc1ccc(CNc2ccnc(-c3ccoc3)n2)c(OC)c1	4%	.
Cc1ccc(S(=O)(=O)N2CCN(c3nc4ccccc4nc3-n3nc(C)cc3C)CC2)cc1	15%	>57
Cc1ccc(SCC(=O)NCc2ccco2)cc1	-1%	>57
N#C/C(=C\c1ccc(O)c(O)c1)S(=O)(=O)c1ccccc1	-9%	>57
O=C(Nc1ccccc1)N1CCC2(CC1)CCN(S(=O)(=O)c1ccccc1)CC2	5%	>57

# Full records, looked up by structure. Order of screens: Anthrax LT inh | SmPrx2 inh
# CCOC(=O)C1=C(N)Oc2cc(C)n(C)c(=O)c2C1c1ccncc1 (stereo not given) reads 7% | >57
# O=C(O)c1cc(N2C(=O)C3C4C=CC(C4)C3C2=O)ccc1NCc1cccnc1 (stereo not given) reads -2% | >57
# NCCSCCC(=O)O reads 5%[8 µM] | >57
# CCOC(=O)C(C)(C)Oc1ccc(Cl)cc1 reads 2% | >57
# N=C(N)CCNC(=O)[C@@H]1CCC(N)=N1 reads -6%[8 µM] | >57

# (next part)
canonical_smiles	Anthrax LT inh	SmPrx2 inh
O=C(NCc1nnc(SCC(=O)N2CCN(c3ccccc3)CC2)o1)c1ccco1	2%	>57
O=C(O)c1cc(S(=O)(=O)Nc2ccc3oc(=O)sc3c2)ccc1O	?	>57
Cc1cc(C)c2c(n1)nn1c(-n3ccnc3)cc(C)nc21	-6%	>57
CCOC(=O)N1CCC(N(C(=O)Nc2ccccc2)C(C)CC)CC1 (stereo not given)	.	>57
CCOC(=O)c1nnn(-c2nonc2OC)c1-c1ccccc1	-9%	>57
O=S(=O)(Nc1cnc2ccccc2c1)N1CCCCCC1	?	>57
CCCc1[nH][nH]c(=O)c1C(c1cccc(Cl)c1)C(C#N)C#N (stereo not given)	-5%	>57
CC1CCC(C(=O)NC(C(=O)NCCCN2CCOCC2)C(C)C)CC1 (stereo not given)	9%	>57
Oc1cc(O)c2c(c1)O[C@H](c1ccc(O)c(O)c1)[C@@H](O)C2	-11%	>57
O=C(NCc1ccccc1)c1c(F)c(F)c(F)c(F)c1F	?	>57
O=C(CSc1ccccc1C(=O)O)Nc1cccc(C(=O)O)c1	.	>57
Cc1cc(=O)[nH]c(Nc2cccc(C(F)(F)F)c2)n1	0%	>57
CCCN1C(=O)c2cc(C(=O)NC3CCCC3)ccc2C1O (stereo not given)	-10%	>57
Brc1ccc(-c2nn3c(-c4ccccn4)nnc3s2)o1	-8%	?
COC(=O)C1=C(C)Nc2ncnn2C1c1ccc(C)o1 (stereo not given)	23%	>57
O=C1c2cccnc2C(O)N1Cc1ccccc1 (stereo not given)	3%	>57
N#Cc1nc(COc2ccccc2)oc1NCCCn1ccnc1	0%	>57
O=C(NCc1ccco1)C1CCCN(S(=O)(=O)c2ccc(-n3cnnn3)cc2)C1 (stereo not given)	-1%	>57
Cc1cccc(N2CCN(C(=O)c3ccncc3)CC2)c1C	?	>57
COc1ccc(OC)c(C2CC(=O)N3CN(c4cccc(Cl)c4)CSC3=C2C#N)c1 (stereo not given)	-30%	>57
COC(=O)c1cc(NC(=O)Cn2c(=O)cnc3ccccc32)cc(C(=O)OC)c1	-7%	>57
COCC(=O)Nc1cc(OC)ccc1OC	.	>57
O=C(Nc1ccc(Cc2ccc(NC(=O)N3CCOCC3)cc2)cc1)N1CCOCC1	5%	>57
CN(C)CCNC(=O)c1ccc(COCC(F)(F)F)cc1	0%	>57
CCCNC(=O)CN(C)C(=O)c1n[nH]c2ccccc12	-3%	>57
CN(Cc1ccccc1)c1nc2c(c(=O)[nH]c(=O)n2C)n1CCCc1ccccc1	-13%	>57
CS(=O)(=O)Nc1ccccc1C(=O)Nc1ccc2c(c1)OCCO2	12%	>57
CCOC(=O)N1CCN(c2c(NCc3cccs3)c(=O)c2=O)CC1	-25%	>57
O=C(Nc1ccccn1)[C@@H]1CCC(=O)N1C(=O)OCc1ccccc1	-3%	>57
COc1cc(NS(=O)(=O)c2ccc(OC)c(OC)c2)cc(OC)c1	5%	.
Cc1cc(NO)nc(-c2ccc(Br)cc2)n1	?	>57
CC(C)(Oc1ccc(Cl)cc1)C(=O)NCCCn1ccnc1	14%	>57
N=C(N)[C@H](N=Nc1ccccc1)C(N)=O	-8%[8 µM]	>57
O=C(COc1ccc(S(=O)(=O)N2CCCC2)cc1Cl)Nc1ccc2c(c1)OCO2	-2%	>57
C=CCNC(=O)c1cccc(Br)c1	6%	.
COc1cc(Cl)c(S(=O)(=O)N2CCN(Cc3ccc4c(c3)OCO4)CC2)cc1Cl	?	>57
Cc1cc(S(=O)(=O)NCCN(C)C)c(C)s1	?	>57
OCCn1c(CSc2nnc(-c3ccco3)n2-c2ccccc2)nc2ccc(Cl)cc21	?	>57
CCOc1nc(-c2ccc(OC)cc2)ccc1-c1noc(-c2cc(OC)c(OC)c(OC)c2)n1	?	>57
O=C(CSc1nc2ccccc2[nH]1)c1ccco1	18%	>57
COC(=O)c1[nH]c2cccc(OC)c2c1NC(=O)CN1CC2(C)CC1CC(C)(C)C2 (stereo not given)	-40%	>57
CC(C)(C)NC(=O)c1ccc2c(c1)N(CC(=O)N1CCN(c3ccccc3F)CC1)C(=O)C(C)(C)O2	?	>57
Cc1ccnc(NS(=O)(=O)c2ccc(NS(=O)(=O)c3cccs3)cc2)n1	-9%	>57
CC(=O)c1ccc(NC(=O)CCC(=O)OCC(F)(F)C(F)F)cc1	2%	.
CC(C)(C)N1C(=O)[C@@H]2[C@H]3C(=CC[C@H]2C1=O)C(=O)[C@H]1O[C@H]1[C@H]3O	?	.
COC(=O)Cc1c(C)c2cc(Cl)c(OC(=O)c3ccco3)cc2oc1=O	?	>57
CC(C)(C)N1C(=O)c2ccc(C(=O)NCc3ccco3)cc2C1=O	-3%	>57
CN1CCC(N(C)C(=O)COc2ccccc2-c2ccccc2)CC1	?	>57
CC(C)NC[C@@H](O)COc1ccc(CCOCC2CC2)cc1	?	>57&>57&>57
CCOc1ccccc1NC(=O)c1ccccc1-c1nc(-c2ccccc2OC)no1	-13%	>57

# Next compounds follow:
canonical_smiles	Anthrax LT inh	SmPrx2 inh
Cc1cc(C(=O)N[C@@H](c2ccccc2)[C@]2(C)C[C@H]2[C@@H](C)C(=O)Nc2ccc3ccccc3c2)n(C)n1	-36%	>57
CN(C)c1nc(N)nc(CSc2nnnn2-c2cccc3ccccc23)n1	-14%	>57
CC1Cc2ccccc2N1C(=O)COC(=O)Cn1cnc2ccccc2c1=O (stereo not given)	-3%	>57
C[C@@H](CNC(N)=O)NC(N)=O	1%[8 µM]	>57
COc1ccc(C(O)CNc2ccc(C)cc2)cc1 (stereo not given)	?	>57
NCCc1nnc(SCc2ccc(F)cc2)o1	-18%	>57
CCNc1ncc2nc(-c3ccccc3)c(=O)n(C3CC3)c2n1	?	>57
Cc1cc(NC(=O)Cc2cn3ccsc3n2)n(-c2ccccc2)n1	5%	>57
CCc1nnc(NC(=O)CCN2C(=O)c3ccccc3S2(=O)=O)s1	1%	>57
CCOC(=O)c1c(OCC)[nH]c2c1cc(O)c1ccccc12	?	.
COC(=O)c1cc(OC)c(OC)cc1NC(=O)c1ccccc1	-16%	>57
Cc1cc(C)c(C)c(S(=O)(=O)Nc2ccc(O)cc2)c1C	-12%	>57
Cn1c(=O)c2c(nc(CN3CCN(c4cccc(Cl)c4)CC3)n2CCc2ccccc2)n(C)c1=O	-23%	>57
C/C=C/Cn1c(SCc2ccc(C)cc2)nc2c1c(=O)[nH]c(=O)n2C	-12%	>57
Nc1nnc(SCc2ccc(F)cc2)s1	-3%	>57
COc1cccc(NC(=O)CSc2nnc(C)s2)c1	-5%	>57
CC(C)(N)CO[C@H]1C[C@H]2CC[C@@]1(C)C2(C)C	-10%[8 µM]	>57
CCC(C)(C)n1nnnc1C(c1ccc2ncccc2c1)N1CCN(Cc2ccc3c(c2)OCO3)CC1 (stereo not given)	-17%	>57
O=S(=O)(N1CCOCC1)n1c(Cc2ccccc2)nc2ccccc21	.	>57
COc1ccc(-c2nnc(SCC(=O)NC(C)C)n2CC2CCCO2)cc1OC (stereo not given)	13%	>57
COCCn1c(=O)c(-c2ccccc2)nc2cnc(OCc3ccccc3)nc21	?	>57
COC(=O)c1onc(C(=O)c2ccccc2)c1C(=O)OC	-7%	>57

# Some of the compounds tested, so the mix of outcomes need not match the whole.
